High-throughput results (PubChem BioAssay)
UCH37 DUB inh = blocks the human deubiquitinase UCH37; actives 0.33% (n = 330,000); AID 588478; Q9Y5K5; purified proteasome/UCH37, Ub-AMC cleavage fluorescence; inhibition, % (test concentration not listed);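 active means mean of two replicates above 20%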;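 further: 0% = compound-free wells with enzyme and 100% = wells lacking proteasome; stock transfer was 100 nL into about 20 µL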
Target sequence (Q9Y5K5 whole entry, looked up): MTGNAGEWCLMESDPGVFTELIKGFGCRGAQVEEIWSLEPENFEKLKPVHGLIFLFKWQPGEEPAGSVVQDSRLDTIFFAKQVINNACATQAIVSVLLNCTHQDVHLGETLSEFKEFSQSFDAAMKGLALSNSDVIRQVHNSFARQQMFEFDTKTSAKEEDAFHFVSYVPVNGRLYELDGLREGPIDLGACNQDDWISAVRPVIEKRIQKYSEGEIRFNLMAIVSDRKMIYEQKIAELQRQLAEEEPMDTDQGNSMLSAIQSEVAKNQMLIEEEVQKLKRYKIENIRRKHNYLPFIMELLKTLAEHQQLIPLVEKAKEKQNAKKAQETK
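system = Proteasome-associated human UCH37 deubiquitinase | amount = 0.15 nM proteasome as dispensed | medium = pH 7.4 Tris-HCl (50 mM) with ovalbumin, ATP-MgCl2, DTT | incubation = 30 min preincubation with enzyme, 25 min cleavage at room temperature | detection = AMC fluorescence 355/460 nm | read-out basis = percent inhibition | controls = no-proteasome and no-compound wells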
Beta2AR agonist = agonists of human beta-2 adrenergic receptor inducing internalization; P07550; Am2.2-beta2AR cells, FAP receptor internalization, flow cytometry; reference of the scale not given here; response, % (concentration not given with the values); actives 0.43% (n = 340,000);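 active means response above a set limit, near 3 SD of response in nonfluorescent compounds, cut at about 42% in these data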;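 further: stock transfer was 100 nL into about 11 µL; a reference agonist was the positive control; negative values mostly stem from fluorescent compounds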
Target sequence (P07550 whole entry, looked up): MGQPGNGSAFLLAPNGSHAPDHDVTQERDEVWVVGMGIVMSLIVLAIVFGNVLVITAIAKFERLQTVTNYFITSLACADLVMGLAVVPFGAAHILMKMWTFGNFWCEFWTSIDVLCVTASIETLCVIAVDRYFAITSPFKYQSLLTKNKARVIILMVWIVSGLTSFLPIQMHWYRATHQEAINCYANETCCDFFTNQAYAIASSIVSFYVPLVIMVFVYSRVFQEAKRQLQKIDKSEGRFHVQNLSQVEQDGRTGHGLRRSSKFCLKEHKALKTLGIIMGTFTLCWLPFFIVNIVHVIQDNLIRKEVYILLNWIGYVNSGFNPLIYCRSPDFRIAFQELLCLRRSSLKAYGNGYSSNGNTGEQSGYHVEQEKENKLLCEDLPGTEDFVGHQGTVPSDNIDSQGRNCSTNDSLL
Starred values were filed as active, the others as inactive. This is a subset; rates above refer to the full screens.

UCH37 DUB inh	Beta2AR agonist	compound
-4.9	-5	COc1cc2oc(=O)cc(-c3ccc(-c4ccc(F)c(Cl)c4)cc3)c2c(OC)c1OC
0.6	8	O=C(CCNC(=O)c1ccco1)Nc1nc2ccccc2s1
-1.3	9	Cc1cc(C)c(CN2CCN(C(=O)Cn3cnc(C(=O)Nc4ccc(C)c(C)c4)n3)CC2)c(C)c1
-0.7	-4	CC(C)N1CCN(Cc2cnc(N3CCCC3)s2)CC1CCO (stereo not given)
5.6	-5	O=C(COC(=O)C1CC2CCCC(C1)C2=O)Nc1ccc(Cl)cn1 (stereo not given)
-0.7	0	CCCCNS(=O)(=O)CCNCc1ccc(OC)cc1
3.3	-9	CCN(CC)C(=O)[C@H]1C[C@H](CC(=O)NCC23CC4CC(CC(C4)C2)C3)C(=O)N2CCc3c([nH]c4cc(CCC(=O)N(C)C)ccc34)[C@]12C
3.3	3	O=S(=O)(c1ccc(C(F)(F)F)cc1)N1CCN(CCOc2ccccc2)CC1
0.7	-5	O=C1[C@H](c2ccccc2)[C@@H](c2ccccc2)N1c1ccncc1
-0.6	5	CCOC(=O)c1c(NC(=O)CN2CCN(c3cccc(Cl)c3)CC2)sc(C)c1C
1.5	3	COc1cccc(C(CNC(=O)C2CCN(C(=O)Nc3ccccc3)CC2)N(C)C)c1 (stereo not given)
0.5	-8	Cc1cc(C)c(S(=O)(=O)N2CCN(C(=O)c3ccccc3OCc3c(C)noc3C)CC2)c(C)c1
-2.7	-2	CCOC(=O)c1ccccc1NC(=O)CN1CCC(n2nnc3cc(F)ccc32)CC1
-4.1	20	CC(C)C(=O)N1CCC(CN=Cc2c(O)n(C3CCCCC3)c(=O)n(C3CCCCC3)c2=O)CC1
2.8	-7	Cc1cnc(C(=O)Nc2ccc(C)c(S(=O)(=O)N3CCCCCC3)c2)cn1
-13	-7	c1ccc(-c2nnc(Cn3c4ccccc4c4nc5ccccc5nc43)o2)cc1
4.5	-66	CC(=O)OCCNc1cc(N2CCN(C)CC2)c2noc3c2c1C(=O)c1ccccc1-3
2.1	-11	O=C(Cc1ccc(S(=O)(=O)N2CCOCC2)s1)N1CCN(S(=O)(=O)c2ccccc2[N+](=O)[O-])CC1
-1.9	9	CCOC(=O)C1CCCN(C(=O)C2CCN(S(=O)(=O)c3ccc(Cl)c(C(F)(F)F)c3)CC2)C1 (stereo not given)
6.7	1	CCOC(=O)C1Oc2ccccc2C(C(=O)OC)=C1C(=O)OC (stereo not given)
-1.0	4	Cc1ccc(S(=O)(=O)N2CCCCC2)cc1C(=O)OC(C)C(=O)NC1CCCCC1C (stereo not given)
6.4	5	Cc1cc(C)cc(NS(=O)(=O)CCCS(=O)(=O)Nc2cc(C)cc(C)c2)c1
5.3	-2	CC[C@@]1(C(=O)OC)N[C@H](CN(C)C(=O)COC)[C@@H]2C(=O)N(C)C(=O)[C@@H]21
-24	3	CC[C@]12c3[nH]c4cc(-c5ccco5)ccc4c3CCN1C(=O)[C@@H](CC(=O)NCCCOC)C[C@@H]2C(=O)N1CCN(C(=O)C2CC2)CC1
0.6	3	Nc1ccc2[nH]c(=S)sc2c1
2.5	-12	CN(C(=O)c1cccc(NC(=O)Cc2ccc(NC(=O)C3CCCN(C(=O)C4CCCCC4)C3)cc2)c1)C1CC1 (stereo not given)
0.5	-15	CN(C(=O)c1cccc(NC(=O)Cc2ccc(NC(=O)C3CCCN(C(=O)C4CC4)C3)cc2)c1)C1CCCCC1 (stereo not given)
4.2	7	O=C(NCCc1ccc2c(c1)OCCO2)c1cc(S(=O)(=O)N2CCCC2)ccc1Cl
7.5	-1	Cc1ccccc1C(=O)N1CCC(C(=O)OCC(=O)Nc2cccc([N+](=O)[O-])c2C)CC1
-0.4	-2	O=S(=O)(Nc1cccc(S(=O)(=O)N2CCCC2)c1)c1ccc(F)cc1
4.0	-4	Cc1ccc(S(=O)(=O)N2CCN(C(=O)COC(=O)c3ccc(Cl)c(S(N)(=O)=O)c3)CC2)c(C)c1
-3.1	4	CC12CCC(C)(O1)C1C(=O)N(c3nccs3)C(=O)C12 (stereo not given)
4.4	-4	CCOC(=O)c1c(C)[nH]c(C)c1C(=O)CN1C(=O)NC2(CCCCCC2)C1=O
-0.6	-13	COc1ccc(S(=O)(=O)N(C)C)cc1NC(=O)Cc1ccc(S(=O)(=O)N2CCOCC2)s1
4.4	3	COc1cc(N)c2ncccc2c1OC
1.5	0	Cc1c(C(=O)O)sc(S(=O)(=O)N2CCN(C(=O)Cc3ccc(Cl)cc3)CC2)c1C(=O)O
-1.3	-3	CCOC(=O)C1=C(C)N(C[C@@H]2CC[C@@H](Cc3ccc4cc(OC)ccc4c3)O2)C(=O)NC1c1ccc(OC)cc1 (stereo not given in full)
-0.1	-1	Cc1ccc(C(=O)NC(Cc2cccc(C(F)(F)F)c2)C(=O)O)cc1 (stereo not given)
1.7	-8	COC(=O)Cn1c(CN2CCN(c3ccccc3F)CC2)nc2c1c(=O)n(C)c(=O)n2C
0.5	11	COc1ccc(CN2CCN(C(=O)c3ccc(S(=O)(=O)NCc4ccco4)cc3)CC2)cc1F
-2.7	-3	COc1cccc(N2CCN(CC(=O)Nc3ccnn3C3CCCC3)CC2)c1
0.4	3	COc1ccc(C2CC(=O)Oc3cc4c(cc32)OCO4)cc1 (stereo not given)
-137	-8	Cc1cc(C)c2c(n1)nn1c(-n3ccnc3)cc(C)nc21
4.1	4	CCOC(=O)CC[C@H](NC(=O)Cn1cnc(C(=O)Nc2ccc(C)c(C)c2)n1)C(=O)OCC
3.8	-7	O=C1C[C@@H]2c3c(cccc3CN1Cc1ccc(Br)cc1)C[C@@H](O)[C@H]2O
0.4	9	O=C1CCCN1C(=O)CSc1ncnc2sccc12
7.7	44*	O=C(/C=C/c1ccccc1)CCN1CCCCC1
11	-1	CC(=NNc1ccc([N+](=O)[O-])cn1)c1ccc(N)cc1
2.4	-2	CCN(CC)S(=O)(=O)c1cc(NC(=O)Cc2ccc(S(=O)(=O)N3CCOCC3)s2)ccc1Cl
0.0	0	O=C1NCC(Nc2ccc(Br)cc2)C(=O)N1 (stereo not given)

Next entries
UCH37 DUB inh	Beta2AR agonist	compound
3.7	14	Cc1sc2nc(CSC(C)C(=O)NC3(C#N)CCCCC3)[nH]c(=O)c2c1C (stereo not given)
4.3	3	C=CC(c1ccccc1)C(C(=O)c1ccccc1)N(C)C (stereo not given)
1.1	7	COc1cc(OC)c(N(C)S(=O)(=O)c2cccc(C(=O)OCC(=O)N(C)Cc3ccccc3)c2)cc1Cl
-0.3	-1	C[C@]12CCC(=O)C=C1C=CC1C2CC[C@@]2(C)C1CC[C@@]21CCC(=O)O1 (stereo not given in full)
1.9	4	CN(CC(=O)Nc1ccccc1Cl)C(=O)c1cc2c(s1)CCCCC2
0.7	-5	O=C1CC(C(=O)O)NC(=S)N1 (stereo not given)
4.2	1	Cc1cc(C)c(CC(=O)c2ccccc2)c(C)c1
-1.3	-3	O=C1C=CC(=O)N1Cc1cccnc1
0.3	-1	C[C@]12CC[C@H](O)C[C@@H]1CC[C@@H]1[C@@H]2CC[C@@]2(C)[C@H]1CCC(=O)[C@]21CCCO1
4.7	1	O=C1CCc2cc(S(=O)(=O)N3CCC(C(=O)NCCC4=CCCCC4)CC3)ccc2N1
-4.0	2	O=C(NCCCN1CCC(Cc2ccccc2)CC1)C1CCN(S(=O)(=O)N2CCOCC2)CC1
2.8	1	Cc1cccnc1NC(=O)c1ccco1
1.4	7	COc1cc(C(=O)CCc2ccc3c(c2)OCO3)cc(OC)c1OC
2.4	-1	Cc1cc(CN2CCN(CC(=O)Nc3cc(Cl)ccc3-n3cncn3)CC2)no1
0.6	-7	CCOC(=O)C1=CN2CCC[C@H]2CC1=O
2.4	-12	Cc1c(C(=O)N2CCN(C3CCS(=O)(=O)C3)CC2)oc2ccc(Cl)cc12 (stereo not given)
2.6	6	COc1ccc(NC(=O)CSc2nnnn2C)cc1S(=O)(=O)N1CCCCC1
5.5	-8	COc1ccc(NC(=O)CN(C)C(=O)CNC(=O)c2ccc3ccccc3c2)cc1
3.1	7	COc1ccc(C(=O)NCC(C)(c2ccccc2)c2ccccc2)cc1S(=O)(=O)N1CCOCC1
-40	8	CCOc1nc(-c2ccccc2)ccc1-c1noc(-c2ccc(OC)c(OC)c2)n1
6.0	-1	CC(=O)Nc1ccc(NC(=O)c2cc(S(=O)(=O)N3CCCCC3)ccc2N2CCOCC2)cc1
0.2	1	CC(C)=C1CCC(C)CC1=NNC(N)=S (stereo not given)
-0.3	-1	O=C(COC(=O)c1ccc(-n2cnnn2)cc1)c1ccc(Br)cc1
4.5	-3	CCN1CCN(S(=O)(=O)c2ccc(Cl)c(C(=O)N(CC(C)C)C3CCS(=O)(=O)C3)c2)CC1 (stereo not given)
2.7	9	COC(=O)/C=C/c1cccc([C@H]2[C@@H]3C=CC[C@@H](C)[C@@H]3C(=O)N2Cc2ccccc2)c1

Shown with two lines to a compound: part of the list above
The line under a structure holds: UCH37 DUB inh | Beta2AR agonist
Cc1cc(CN2CCN(CC(=O)Nc3cc(Cl)ccc3-n3cncn3)CC2)no1
→ 2.4 | -1
CCOC(=O)C1=CN2CCC[C@H]2CC1=O
→ 0.6 | -7
Cc1c(C(=O)N2CCN(C3CCS(=O)(=O)C3)CC2)oc2ccc(Cl)cc12 (stereo not given)
→ 2.4 | -12
COc1ccc(NC(=O)CSc2nnnn2C)cc1S(=O)(=O)N1CCCCC1
→ 2.6 | 6
COc1ccc(NC(=O)CN(C)C(=O)CNC(=O)c2ccc3ccccc3c2)cc1
→ 5.5 | -8
COc1ccc(C(=O)NCC(C)(c2ccccc2)c2ccccc2)cc1S(=O)(=O)N1CCOCC1
→ 3.1 | 7
CCOc1nc(-c2ccccc2)ccc1-c1noc(-c2ccc(OC)c(OC)c2)n1
→ -40 | 8
CC(=O)Nc1ccc(NC(=O)c2cc(S(=O)(=O)N3CCCCC3)ccc2N2CCOCC2)cc1
→ 6.0 | -1
CC(C)=C1CCC(C)CC1=NNC(N)=S (stereo not given)
→ 0.2 | 1
O=C(COC(=O)c1ccc(-n2cnnn2)cc1)c1ccc(Br)cc1
→ -0.3 | -1
CCN1CCN(S(=O)(=O)c2ccc(Cl)c(C(=O)N(CC(C)C)C3CCS(=O)(=O)C3)c2)CC1 (stereo not given)
→ 4.5 | -3
COC(=O)/C=C/c1cccc([C@H]2[C@@H]3C=CC[C@@H](C)[C@@H]3C(=O)N2Cc2ccccc2)c1
→ 2.7 | 9

Further results.
UCH37 DUB inh	Beta2AR agonist	compound
2.1	-3	O=C(NNc1ccc([N+](=O)[O-])cn1)Nc1ccc(N=Nc2ccccc2)cc1
1.1	-4	N#Cc1ccccc1S(=O)(=O)N1CCN(C(=O)c2cc3c(s2)CCC3)CC1
0.7	-2	COc1ccc(C(CNC(=O)CCNS(=O)(=O)c2ccc(Br)cc2)N2CCOCC2)cc1 (stereo not given)
-0.4	-4	Cc1cc(C)nc(NC2=N[C@@H]3CCCC[C@H]3N2C(=O)Nc2cc(Cl)cc(Cl)c2)n1
-0.2	2	O=C(COC(=O)c1cccc(S(=O)(=O)N2CCCC2)c1)Nc1ccccc1C(F)(F)F
-1.7	1	O=C(N[C@H]1C/C=C\C(c2cccc(F)c2)N(Cc2ccccc2)C(=O)C1)OCC1c2ccccc2-c2ccccc21 (stereo not given in full)
2.3	-3	Cc1cccc(NC(=O)CN2CCN(C(=O)CN3C(=O)NC4(CCCCC4C)C3=O)CC2)c1C (stereo not given)
4.8	3	O=C(COC(=O)c1nc(Cl)ccc1Cl)Nc1cccc(S(=O)(=O)N2CCOCC2)c1
9.8	-3	O=C1NC(=S)SC1=Cc1cccs1
4.3	5	CN(Cc1cccnc1)C(=O)c1ccc(Cl)c(NS(=O)(=O)c2ccc(F)cc2)c1
-1.6	-3	N#CCCN1CCN(CCC#N)c2ccccc21
3.1	0	Cc1n[nH]c(C)c1NC(=O)CN1CCN(S(=O)(=O)c2ccc(C(F)(F)F)cc2)CC1
-430	-1	CC[C@H]1C(c2ccc(F)cc2)=NN(c2ccccc2)[C@@H]1CO
0.7	-6	O=S(=O)(c1ccc(SCCOc2ccc(Br)cc2)nc1)N1CCCC1
3.3	3	CC[C@]12c3[nH]c4cc(CCC(=O)N(C)C)ccc4c3CCN1C(=O)[C@@H](CC(=O)NCc1ccco1)C[C@@H]2C(=O)N1CCN(C(=O)c2ccco2)CC1
-2.8	-9	O=C(COC(=O)/C=C/c1ccc(F)cc1)NC1CCCC1
0.1	0	CC(NC(=O)c1ccccc1)C(=O)NC1CCCc2ccccc21 (stereo not given)
0.4	4	Cc1ccc(S(=O)(=O)N2CCN(CC(=O)Nc3ccccc3C(=O)NC3CC3)CC2)cc1
5.4	3	Cc1ccccc1NC(=O)CN1C(=O)NC2(CCCCCCC2)C1=O
-1.8	1	O=S(=O)(NCc1ccccc1)c1ccccc1NCc1ccc(Cl)cc1
2.6	3	CCN(CC)C(=O)[C@H]1C[C@H](CC(=O)NCc2cccc(C(F)(F)F)c2)C(=O)N2CCc3c([nH]c4ccc(Cl)cc34)[C@]12C
-0.5	-1	O=C(Nc1ccc([N+](=O)[O-])cc1NC(=O)c1ccccc1)c1ccccc1
1.5	1	O=C(Nc1ccccc1Cl)NN1CCCCCC1
